T cruzi inh: T. cruzi replication inhibition; actives 1.4% (n = 300,000); inhibition, % (concentration not given with the values); T. cruzi beta-gal in NIH3T3, luminescence, 90 h;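 active means mean inhibition across valid replicates above about 55%, limit read from the data; inconclusive means mean below that limit but half or more replicates reach it; inactive means mean below it, under half of replicates reach it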;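 further: signal also drops with host cell toxicity which is not excluded here; 0% = plate median of DMSO wells and 100% = zero luminescence signal; higher percent means less beta-gal luminescence so fewer parasites; stock transfer was 50 nL into about 50 µL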
MLL AF4-AF9 inh: blocks AF4 peptide binding to human AF9; P42568; AlphaScreen, biotin-AF4 peptide binding to FLAG-AF9; inhibition, % at 10 µM; actives 0.47% (n = 350,000); AID 651704;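 active means every replicate reaching a set inhibition limit, whatever the replicate mean, cut at about 25% in these data; inconclusive means mean inhibition reaches that limit but some replicates miss it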;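 further: 0% = plate neutral control median and 100% = total signal loss; the record names both 10 and 1 µM as test concentration; the first replicate is given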
Target sequence (P42568 whole entry, looked up): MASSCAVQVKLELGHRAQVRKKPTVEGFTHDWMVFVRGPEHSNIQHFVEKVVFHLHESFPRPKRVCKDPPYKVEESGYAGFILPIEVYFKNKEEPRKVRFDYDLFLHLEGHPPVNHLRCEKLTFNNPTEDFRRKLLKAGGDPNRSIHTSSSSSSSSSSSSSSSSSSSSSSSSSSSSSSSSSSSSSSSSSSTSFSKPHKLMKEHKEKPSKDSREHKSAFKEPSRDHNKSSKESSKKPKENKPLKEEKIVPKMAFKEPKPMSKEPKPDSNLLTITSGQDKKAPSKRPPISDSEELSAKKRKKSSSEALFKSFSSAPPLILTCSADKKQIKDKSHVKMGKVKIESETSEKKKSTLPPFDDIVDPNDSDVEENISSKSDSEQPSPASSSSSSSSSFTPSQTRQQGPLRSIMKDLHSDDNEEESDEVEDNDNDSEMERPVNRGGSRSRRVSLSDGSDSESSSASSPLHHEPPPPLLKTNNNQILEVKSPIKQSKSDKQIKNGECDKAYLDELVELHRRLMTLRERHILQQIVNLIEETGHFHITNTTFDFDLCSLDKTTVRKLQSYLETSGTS
Ecoli rRNA inh: inhibits bacterial ribosomal RNA function over humanized ribosomes; actives 1.6% (n = 350,000); GFP signal change (wild-type ribosome), % (concentration not given with the values); E. coli WT GFP vs humanized-ribosome RFP mutants, fluorescence, 24 h; hits give low values; DMSO median 0, no signal -100;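 active means significant combined selectivity score with lowered wild-type GFP, culture density cut under 30%, mutant RFP and density less affected; inactive means any of these conditions unmet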; further: one replicate is shown; some compounds called inactive have numbers as strong as hits
FGF22 binding: binders of recombinant human FGF22 by thermal shift; Q9HCT0; actives 1.5% (n = 340,000); SYPRO orange fluorescence; percent of sucrose octasulfate shift, DMSO zero; calls only at 9.99 µM; AID 651658;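 active means melting point raised past a set limit in the mean and every replicate; inconclusive means no clear call; three in four hits are not shown here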
Target sequence (Q9HCT0 whole entry, looked up): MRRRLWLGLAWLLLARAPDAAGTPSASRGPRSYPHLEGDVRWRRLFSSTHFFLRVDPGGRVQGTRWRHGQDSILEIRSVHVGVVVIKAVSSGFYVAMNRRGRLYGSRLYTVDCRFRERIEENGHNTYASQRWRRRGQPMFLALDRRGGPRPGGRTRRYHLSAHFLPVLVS
E coli growth: inhibitors of Escherichia coli growth; OD600, 23 h; hits give low values; OD600 absorbance (concentration not given with the values); actives 0.21% (n = 330,000); AID 1053175;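 active means OD600 absorbance below the run mean of sample wells minus 3.6 SD, in any replicate, cut at about 0.56 in these data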;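 further: stock transfer was 300 nL into about 60 µL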
UCH37 inh: inhibitors of human deubiquitinating enzyme UCH37 | inhibition, % (test concentration not listed) | purified proteasome/UCH37, Ub-AMC cleavage fluorescence | actives 0.33% (n = 330,000) | Q9Y5K5;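 active means mean of two replicates above 20%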;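 further: 0% = compound-free wells with enzyme and 100% = wells lacking proteasome; stock transfer was 100 nL into about 20 µL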
Target sequence (Q9Y5K5 whole entry, looked up): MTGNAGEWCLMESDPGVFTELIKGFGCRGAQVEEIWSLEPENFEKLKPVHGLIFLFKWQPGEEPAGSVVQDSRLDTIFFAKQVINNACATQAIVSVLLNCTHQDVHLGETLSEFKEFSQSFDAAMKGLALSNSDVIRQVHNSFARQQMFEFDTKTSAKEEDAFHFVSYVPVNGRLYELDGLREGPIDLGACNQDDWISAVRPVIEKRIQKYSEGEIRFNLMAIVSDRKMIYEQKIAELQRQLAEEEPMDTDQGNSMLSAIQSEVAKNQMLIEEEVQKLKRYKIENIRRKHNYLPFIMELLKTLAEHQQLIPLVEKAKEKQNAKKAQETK
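Signal – fluorescence, ex 355 nm, em 460 nm · System – Proteasome-bound UCH37 · Input – 0.15 nM proteasome as dispensed · Timing – 30 min preincubation with enzyme, 25 min cleavage at room temperature · Read-out basis – percent inhibition of cleavage signal versus uninhibited and no-proteasome wells · Medium – Tris-HCl pH 7.4 with ATP-MgCl2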
Beta apoptosis: blocks beta cell apoptosis; INS-1E cytokine-induced death, ATP luminescence, 48 h; percent of positive-control rescue, neutral wells zero; protection from apoptosis, % (no concentration beside the values); actives 0.8% (n = 300,000);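 active means all replicates at 75% or more, or half of them and the mean; inconclusive means half reach 75% but not the mean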;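 further: 0% = cytokine-treated negative control wells and 100% = positive control rescue; higher means more ATP so stronger rescue from cytokine killing; wells of about 40 µL received 100 nL stock; the first replicate is given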
A1 inh: inhibitors of the anti-apoptotic protein A1, read as caspase activation; actives 0.066% (n = 330,000); caspase activation, % (concentration not given with the values); AID 2462; MEF A1-2A-BIM cells, Caspase-Glo 3/7 luminescence, 3 h; percent of clofoctol response, vehicle zero;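 active means over half of replicate activation scores above 10%, or exactly half above 10 with the replicate mean above 10; inconclusive means replicate mean below 10 yet half the replicates above 10; inactive means over half of replicates below 10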;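 further: wells of about 30 µL received 50 nL stock; many hits fall short of the cut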
Ecoli rRNA inh OD600: further read-out of Ecoli rRNA inh, marked with its call; OD600 change, %; measured here: OD600 growth;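 optical density of the mix in the first replicate; 0 = DMSO median and -100 = no signal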
Ecoli rRNA inh RFP: second read-out of Ecoli rRNA inh, no call of its own (marks repeat the call); RFP signal change, %; measured here: RFP humanized mutant strains;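 first replicate; 0 = DMSO median and -100 = no signal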
* = called active by the depositor. Not all compounds are listed, so the mix of outcomes need not match the whole.

Start of the data: the first two entries (preview)
Screening CC(=O)N1CCN(C(=O)c2ccc(Cl)c(S(=O)(=O)N3CC(C)OC(C)C3)c2)CC1 (centres undefined) returned MLL AF4-AF9 inh 8.0, Ecoli rRNA inh 9.4, FGF22 binding inactive, E coli growth 0.679, UCH37 inh -0.6, Beta apoptosis -5.3, A1 inh 1.1, Ecoli rRNA inh OD600 6.7 and Ecoli rRNA inh RFP 6.4.
For CC(NS(=O)(=O)c1ccc(Br)cc1)C(N)=O (centres undefined) the results were T cruzi inh -7.6, E coli growth 0.671, UCH37 inh 1.0, Beta apoptosis 1.9 and A1 inh 0.1.

Main list, previewed entries included:
Screening CC(=O)N1CCN(C(=O)c2ccc(Cl)c(S(=O)(=O)N3CC(C)OC(C)C3)c2)CC1 (centres undefined) returned MLL AF4-AF9 inh 8.0, Ecoli rRNA inh 9.4, FGF22 binding inactive, E coli growth 0.679, UCH37 inh -0.6, Beta apoptosis -5.3, A1 inh 1.1, Ecoli rRNA inh OD600 6.7 and Ecoli rRNA inh RFP 6.4.
For CC(NS(=O)(=O)c1ccc(Br)cc1)C(N)=O (centres undefined) the results were T cruzi inh -7.6, E coli growth 0.671, UCH37 inh 1.0, Beta apoptosis 1.9 and A1 inh 0.1.
For CC(/C=C1\SC(=S)N(NS(=O)(=O)c2ccc(C)cc2)C1=O)=C\c1ccccc1 the results were T cruzi inh -6.3, MLL AF4-AF9 inh -2.5, Ecoli rRNA inh -28.8, FGF22 binding inactive, E coli growth 0.707, UCH37 inh 8.1, Beta apoptosis 0.5, A1 inh -0.2, Ecoli rRNA inh OD600 -27.2 and Ecoli rRNA inh RFP 10.9.
For CCOc1ccc(CCNC(=O)CS(=O)Cc2nc(-c3ccc(OC)c(OC)c3)oc2C)cc1OCC (centres undefined) the results were T cruzi inh 10.4, MLL AF4-AF9 inh -2.2, Ecoli rRNA inh -4.5, FGF22 binding inactive, E coli growth 0.701, UCH37 inh 5.6, Beta apoptosis -4.6, A1 inh 0.3, Ecoli rRNA inh OD600 -2.5 and Ecoli rRNA inh RFP -0.4.
COc1cccc2cc(-c3nnc(SCC(=O)Nc4cc(C(F)(F)F)ccc4Cl)n3N)oc12 was read as T cruzi inh 15.0, E coli growth 0.715, UCH37 inh 4.0, Beta apoptosis 0.8 and A1 inh -0.1.
CCc1cccc(C)c1NC(=O)Nc1c(Br)cnn1C was read as T cruzi inh -0.3, E coli growth 0.674, UCH37 inh -2.3 and A1 inh 0.2.
CCn1c(C)nc2cc(C(=O)N/N=C/c3ccc(O)cc3)ccc21 was read as T cruzi inh -12.2, MLL AF4-AF9 inh -2.5, Ecoli rRNA inh -11.7, FGF22 binding inactive, Beta apoptosis 1.1, A1 inh -0.6, Ecoli rRNA inh OD600 5.4 and Ecoli rRNA inh RFP -4.4.
For COc1ccc(NC(=O)Nc2ccc(F)cc2)c(C)c1 the results were T cruzi inh -11.9, MLL AF4-AF9 inh -0.4, Ecoli rRNA inh 7.7, FGF22 binding inactive, E coli growth 0.679, UCH37 inh 3.3, Beta apoptosis -2.9, A1 inh -0.7, Ecoli rRNA inh OD600 13.6 and Ecoli rRNA inh RFP -2.7.
For CC(=O)c1ccc(NC(=O)Nc2ccc3c(c2)nc(C)n3C)cc1 the results were T cruzi inh 4.0, MLL AF4-AF9 inh -3.1, Ecoli rRNA inh 9.2, E coli growth 0.71, UCH37 inh 2.0, Beta apoptosis -1.4, A1 inh -3.5, Ecoli rRNA inh OD600 13.5 and Ecoli rRNA inh RFP 0.5.
`CCN(CC)c1cc(C)c2cc(NC(=O)c3ccccc3OC)ccc2n1` gave T cruzi inh 17.0, MLL AF4-AF9 inh -2.6, Ecoli rRNA inh -1.4, FGF22 binding inactive, E coli growth 0.679, UCH37 inh -7.2, Beta apoptosis 9.1, A1 inh 0.0, Ecoli rRNA inh OD600 -3.4 and Ecoli rRNA inh RFP -2.8.
`COc1ccc(C2C(C(=O)N3CCC(C(N)=O)CC3)CC(=O)N2c2ccc(OC)cc2)cc1` (centres undefined) gave T cruzi inh -9.2, MLL AF4-AF9 inh 5.2, Ecoli rRNA inh -0.8, FGF22 binding inactive, E coli growth 0.737, UCH37 inh 1.4, Beta apoptosis -2.0, A1 inh 0.3, Ecoli rRNA inh OD600 0.7 and Ecoli rRNA inh RFP -1.2.
Screening Cc1n[nH]c(C)c1S(=O)(=O)N1CCCC(C(=O)NC2CCCCC2)C1 (centres undefined) returned T cruzi inh -4.9, MLL AF4-AF9 inh -1.1, Ecoli rRNA inh 13.6, FGF22 binding inactive, E coli growth 0.719, UCH37 inh 0.4, Beta apoptosis 1.1, A1 inh 0.2, Ecoli rRNA inh OD600 1.9 and Ecoli rRNA inh RFP 3.0.
`c1ccc(NCCCNc2ccccc2)cc1` gave T cruzi inh 14.9, E coli growth 0.761, UCH37 inh 2.2, Beta apoptosis -4.2 and A1 inh -0.8.
For COc1ccc(C(=O)Nc2c(N)nc(SCC(=O)N3CCC(C)CC3)[nH]c2=O)cc1OC the results were T cruzi inh -8.2, MLL AF4-AF9 inh -1.3, Ecoli rRNA inh 6.5, FGF22 binding inactive, E coli growth 0.711, UCH37 inh 4.5, Beta apoptosis 5.1, A1 inh 1.5, Ecoli rRNA inh OD600 14.2 and Ecoli rRNA inh RFP 0.4.
Screening Cc1cc(NC(=O)CSc2ccc3nnc(CCNC(=O)c4ccccc4)n3n2)no1 returned T cruzi inh -6.7, MLL AF4-AF9 inh 4.2, Ecoli rRNA inh 5.4, FGF22 binding inactive, E coli growth 0.646, UCH37 inh -4.4, Beta apoptosis -7.8, A1 inh 0.4, Ecoli rRNA inh OD600 0.8 and Ecoli rRNA inh RFP -3.1.
`O=C(Nc1ccc2c(c1)C(=O)NC2=O)c1cccc(C(F)(F)F)c1` gave T cruzi inh 1.4, MLL AF4-AF9 inh 4.1, Ecoli rRNA inh 8.3, FGF22 binding inactive, E coli growth 0.738, UCH37 inh -34.3, Beta apoptosis -3.3, A1 inh 0.6, Ecoli rRNA inh OD600 9.1 and Ecoli rRNA inh RFP -1.4.
Screening OCCNc1nc(OCC(F)(F)F)nc(N2CCN(C34CC5CC(CC(C5)C3)C4)CC2)n1 returned T cruzi inh -17.1, E coli growth 0.753, UCH37 inh 0.8, Beta apoptosis 0.0 and A1 inh -0.1.
Screening CS(=O)(=O)c1ccc(Cl)c(NC(=O)COC(=O)COc2ccc3c(c2)CCC3)c1 returned T cruzi inh -12.4, MLL AF4-AF9 inh -31.1, Ecoli rRNA inh 3.1, FGF22 binding inactive, E coli growth 0.629, UCH37 inh 0.8, Beta apoptosis -0.1, A1 inh -1.2, Ecoli rRNA inh OD600 8.8 and Ecoli rRNA inh RFP -2.0.
`Cn1cc(CNC(=O)Nc2ccc3c(c2)OCO3)cn1` gave T cruzi inh -1.7, E coli growth 0.718, UCH37 inh 3.4, Beta apoptosis 9.3 and A1 inh 0.7.
Screening CC[C@@]1(C(=O)OC)N[C@H](CN(C)C(=O)c2ccc(C)cc2)[C@@H]2C(=O)N(Cc3ccccc3)C(=O)[C@@H]21 returned MLL AF4-AF9 inh 0.5, Ecoli rRNA inh 14.7, FGF22 binding inactive, E coli growth 0.699, UCH37 inh 1.8, Ecoli rRNA inh OD600 3.9 and Ecoli rRNA inh RFP 0.0.
`O=C(Cc1ccccc1)N1CCN(C(=O)c2cccs2)CC1` gave T cruzi inh -7.2, E coli growth 0.771, UCH37 inh -2.1, Beta apoptosis -1.1 and A1 inh 0.2.
For O=C(NCCS(=O)(=O)c1ccc(Cl)cc1)c1ccc(F)cc1 the results were T cruzi inh -8.3, MLL AF4-AF9 inh -2.4, Ecoli rRNA inh -2.4, FGF22 binding inactive, E coli growth 0.728, UCH37 inh 2.9, Beta apoptosis 1.3, A1 inh 0.0, Ecoli rRNA inh OD600 6.5 and Ecoli rRNA inh RFP 1.3.
Cc1ccc(Oc2nnc(-c3ccccc3)c3ccccc23)cc1 was read as T cruzi inh 22.4, MLL AF4-AF9 inh -58.2, Ecoli rRNA inh -4.0, FGF22 binding inactive, E coli growth 0.679, UCH37 inh 2.2, Beta apoptosis 4.9, A1 inh -0.7, Ecoli rRNA inh OD600 -1.1 and Ecoli rRNA inh RFP 1.4.
`Cc1ccc(C(=O)n2c(N)nc3ccccc32)cc1` gave T cruzi inh -10.0, MLL AF4-AF9 inh -3.4, Ecoli rRNA inh 3.2, FGF22 binding inactive, E coli growth 0.673, UCH37 inh 3.8, Beta apoptosis 20.2, A1 inh -7.9, Ecoli rRNA inh OD600 2.0 and Ecoli rRNA inh RFP 2.0.
Screening CCC(Sc1ncccc1C(=O)OCCN1CCCC1=O)C(=O)NCc1ccco1 (centres undefined) returned T cruzi inh -23.4, E coli growth 0.722, UCH37 inh -0.1, Beta apoptosis 2.1 and A1 inh -1.4.
`COc1ccc2c(-c3ccccc3)cc(SCC(=O)NC(N)=O)nc2c1` gave MLL AF4-AF9 inh 8.8, Ecoli rRNA inh 20.0, FGF22 binding inactive, E coli growth 0.681, UCH37 inh -5.1, Beta apoptosis -4.0, A1 inh 1.2, Ecoli rRNA inh OD600 16.4 and Ecoli rRNA inh RFP 3.4.
For CCOc1ccc(NC(=O)CC2C(=O)Nc3ccccc3N2C(=O)c2ccccc2)cc1 (centres undefined) the results were T cruzi inh -11.6, MLL AF4-AF9 inh 0.1, Ecoli rRNA inh -4.2, FGF22 binding inactive, E coli growth 0.693, UCH37 inh 5.0, Beta apoptosis -0.2, A1 inh 1.2, Ecoli rRNA inh OD600 -1.0 and Ecoli rRNA inh RFP -8.2.
COc1ccccc1NC(=O)c1c([N+](=O)[O-])c(C(C)(C)C)nn1C was read as T cruzi inh -1.2, MLL AF4-AF9 inh 4.1, FGF22 binding inactive, E coli growth 0.625, UCH37 inh 2.3, Beta apoptosis -1.3 and A1 inh -0.7.
O=C1N(c2ccccc2)C2CS(=O)(=O)CC2N1c1ccc(Cl)c(Cl)c1 (centres undefined) was read as T cruzi inh 5.8, E coli growth 0.668, UCH37 inh 2.7, Beta apoptosis 1.5 and A1 inh 0.3.
`COc1ccc(-c2ccc(NC(=O)c3ccco3)cc2)nn1` gave T cruzi inh -13.8, MLL AF4-AF9 inh 3.0, Ecoli rRNA inh -7.4, FGF22 binding active, E coli growth 0.58, UCH37 inh -3.8, Beta apoptosis 50.9, A1 inh -8.9, Ecoli rRNA inh OD600 2.0 and Ecoli rRNA inh RFP -3.0.
For COC(=O)CCSCC(=O)N1N=C(c2ccc(OC)cc2)CC1c1cccc(OC)c1OC (centres undefined) the results were T cruzi inh -29.7, MLL AF4-AF9 inh 6.7, Ecoli rRNA inh -7.8, FGF22 binding inactive, E coli growth 0.7, UCH37 inh 3.1, Beta apoptosis 2.9, A1 inh -0.5, Ecoli rRNA inh OD600 -7.7 and Ecoli rRNA inh RFP 0.9.
For CC(C)C(=O)NC(c1cccc([N+](=O)[O-])c1)c1ccc2cccnc2c1O (centres undefined) the results were T cruzi inh 44.7, MLL AF4-AF9 inh inconclusive, Ecoli rRNA inh -0.4, FGF22 binding inactive, E coli growth 0.6, UCH37 inh 5.2, A1 inh -0.3, Ecoli rRNA inh OD600 -6.5 and Ecoli rRNA inh RFP -1.8.
